# Source: PubChem BioAssay (Broad Institute)
# Yeast UUG start – modulators of yeast start codon fidelity, primary screen, whole organism, S. cerevisiae, single point, plate reader; S. cerevisiae UUG-firefly luciferase reporter, luminescence/redox ratio; activity score, % at 18.7 µM; 350,000 tested, 0.13% active; AID 602363, 2012;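 active = replicate mean at a twofold rise or more, about +100% in these data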;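 note: firefly luciferase made from a UUG start codon reports start codon fidelity; reporter light over untreated wells divided by growth signal over untreated wells; some hits fall short of that in this replicate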
# HIV Env fusion – inhibitors of HIV-1 Env-driven cell-cell fusion, primary screen, HeLa-JRFL effector, CEM21 target cells, luciferase; AID 651610, 2012; 360,000 tested, 1.1% active; inhibition, % at 12.3 µM;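 active = mean replicate inhibition score of at least 50 and every replicate individually at or above 50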;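 note: 0% = plate neutral controls and 100% = maraviroc near 300 nM; one replicate is shown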
# An asterisk follows results filed as active; & = joins results of further samples; [ ] = remark or other dose. Only part of the results is shown; the hit share may differ from the screen's.
Yeast UUG start,HIV Env fusion,SMILES
0.0,-3.5[16.7 µM],CC(C)NC(=O)N(C)C[C@H]1OCCCC[C@H](C)Oc2ccc(NS(=O)(=O)c3cccs3)cc2C(=O)N([C@@H](C)CO)C[C@H]1C
8.2,-44.3[16.7 µM],CC(C)NC(=O)Nc1ccc2c(c1)C(=O)N([C@@H](C)CO)C[C@H](C)[C@@H](CN(C)S(=O)(=O)c1ccc(F)cc1)OCCCC[C@H](C)O2
30.5,-8.0[16.7 µM],C[C@@H]1CCCCO[C@@H](CN(C)C(=O)CCCN(C)C)[C@H](C)CN([C@@H](C)CO)C(=O)c2cc(NS(=O)(=O)c3cccs3)ccc2O1
-7.4,-28.5[16.7 µM],C[C@H]1CN([C@@H](C)CO)C(=O)c2cccc(NS(=O)(=O)c3ccc(Cl)cc3)c2O[C@@H]1CN(C)S(=O)(=O)c1ccc(F)cc1
-3.0,3.9[16.7 µM],C[C@@H]1CN([C@H](C)CO)C(=O)c2cc(NC(=O)Nc3ccc4c(c3)OCO4)ccc2O[C@@H](C)CCCCO[C@@H]1CN(C)Cc1ccccc1
11.9,-8.5[16.7 µM],COC(=O)C[C@@H]1CC[C@@H]2[C@H](COc3ccc(NC(=O)c4ccc(OC)cc4)cc3C(=O)N2C)O1
1.0,12.7[16.7 µM],COc1cccc(S(=O)(=O)N[C@@H]2CC[C@@H](CCNC(=O)Nc3cc(F)ccc3F)O[C@@H]2CO)c1
15.8,-1.7[16.7 µM],O=C(C[C@@H]1C=C[C@@H](NC(=O)Nc2cc(F)ccc2F)[C@H](CO)O1)NCCCN1CCOCC1
-4.9,-98.0[16.7 µM],C[C@@H]1CN([C@H](C)CO)C(=O)Cc2cc(NC(=O)Cc3ccccc3)ccc2O[C@@H]1CN(C)Cc1ccc(Cl)c(Cl)c1
-6.0,2.5[16.7 µM],CC(C)NC(=O)N(C)C[C@H]1Oc2cc(C3=CCCC3)ccc2S(=O)(=O)N([C@@H](C)CO)C[C@@H]1C
2.4,-23.7[16.7 µM],COc1ccc(NC(=O)Nc2cccc3c2O[C@@H](CN(C)Cc2ccc(Oc4ccccc4)cc2)[C@H](C)CN([C@H](C)CO)C3=O)cc1
-5.2,-11.0[16.7 µM],Cc1noc(C)c1NC(=O)N(C)C[C@@H]1Oc2ccc(NC(=O)Nc3ccc4c(c3)OCO4)cc2C(=O)N([C@H](C)CO)C[C@@H]1C
4.6,-3.0[16.7 µM],C[C@@H]1CN([C@H](C)CO)C(=O)c2cc(-c3ccncc3)cnc2O[C@@H]1CN(C)C(=O)c1cccc(F)c1
-2.6,7.0[16.7 µM],CCC(=O)N1C[C@@H](C)[C@@H](OC)CN(C)C(=O)c2cc(NS(=O)(=O)CC)ccc2OC[C@H]1C
9.4,-2.6[16.7 µM],CC(=O)N(C)C[C@H]1Oc2cc(C#Cc3cccc(F)c3)ccc2S(=O)(=O)N([C@H](C)CO)C[C@@H]1C
-10.7,2.7[16.7 µM],O=C(C[C@H]1CC[C@H](NC(=O)Nc2ccc(F)cc2)[C@@H](CO)O1)NCCN1CCCC1
22.2,6.2[16.7 µM],CC(=O)N(C)C[C@@H]1Oc2cc(C3=CCCC3)ccc2S(=O)(=O)N([C@H](C)CO)C[C@H]1C
10.1,7.5[16.7 µM],COc1ccc(CN(C)C[C@@H]2Oc3c(NS(=O)(=O)c4ccc(OC)cc4)cccc3C(=O)N([C@@H](C)CO)C[C@@H]2C)cc1
-4.5,6.4[16.7 µM],CNC(=O)C[C@@H]1CC[C@H]2[C@@H](COc3ccc(NC(=O)c4ccc(OC)cc4)cc3C(=O)N2C)O1
-3.9,-16.5[16.7 µM],C[C@H](CO)N1C[C@H](C)[C@H](CN(C)C(=O)Nc2ccc(F)cc2)OCCCC[C@H](C)Oc2ccc(NS(=O)(=O)c3ccc(Cl)cc3)cc2C1=O
11.0,45.3[16.7 µM],C[C@H](CO)N1C[C@H](C)[C@@H](CN(C)Cc2ccc(Cl)c(Cl)c2)OCCCC[C@H](C)Oc2ccc(NC(=O)NC3CCCCC3)cc2C1=O
-23.4,-9.5[16.7 µM],O=C(O)C[C@H]1C[C@H]2c3cc(NC(=O)c4ccc5c(c4)OCO5)ccc3O[C@H]2[C@H](CO)O1
-15.3,7.1[16.7 µM],C[C@H](CO)N1C[C@H](C)[C@H](CN(C)C(=O)Nc2ccccc2)Oc2ccc(NS(=O)(=O)c3cn(C)cn3)cc2CC1=O
6.3,-4.4[16.7 µM],O=C(NCC[C@@H]1CC[C@H](NC(=O)C2CC2)[C@H](CO)O1)c1ccc(F)cc1
-6.9,-10.7[16.7 µM],C[C@@H]1CN([C@H](C)CO)C(=O)Cc2cc(NC(=O)C3CC3)ccc2O[C@@H]1CN(C)Cc1ccccc1
-10.7,-21.0[16.7 µM],CCC(=O)N(C)C[C@H]1Oc2cc(C#Cc3ccncc3)ccc2S(=O)(=O)N([C@@H](C)CO)C[C@@H]1C
-15.7,32.5[16.7 µM],C[C@@H]1CCCCO[C@@H](CN(C)S(=O)(=O)c2ccccc2)[C@H](C)CN([C@@H](C)CO)C(=O)c2cc(NC(=O)Nc3ccc(C(F)(F)F)cc3)ccc2O1
-3.5,16.9[16.7 µM],CCO[C@@H]1OC(C(=O)N2CCCC2)=C[C@H](C2CCCCC2)[C@H]1CCCO
-0.9,82.0*[16.7 µM],C[C@H]1CN([C@@H](C)CO)C(=O)Cc2cc(NC(=O)Nc3ccc(C(F)(F)F)cc3)ccc2O[C@@H]1CN(C)Cc1ccccc1
-5.8,2.2[16.7 µM],COc1ccc(S(=O)(=O)Nc2ccc3c(c2)CC(=O)N([C@H](C)CO)C[C@@H](C)[C@H](CN(C)Cc2ccccc2)O3)cc1
-15.1,3.5[16.7 µM],CCCNC(=O)N[C@@H]1CC[C@@H](CC(=O)NCCc2ccccc2)O[C@H]1CO
1.4,-12.2[16.7 µM],O=C(C[C@H]1C=C[C@H](NC(=O)c2ccc3c(c2)OCO3)[C@@H](CO)O1)NC1Cc2ccccc2C1
-1.1,-1.0[16.7 µM],CC(=O)N(C)C[C@H]1Oc2cc(C#Cc3cccc(F)c3)ccc2S(=O)(=O)N([C@@H](C)CO)C[C@@H]1C
-4.9&2.6,-24.7,C[C@H](CO)N1C[C@H](C)[C@H](CN(C)Cc2cccc(F)c2)Oc2ncc(C3=CCCC3)cc2C1=O
22.2,-9.1[16.7 µM],COc1ccccc1C#Cc1cnc2c(c1)C(=O)N([C@@H](C)CO)C[C@@H](C)[C@@H](CN(C)C(=O)CC1CC1)O2
-1.7,-8.6[16.7 µM],C[C@H](CO)N1C[C@H](C)[C@H](CN(C)C(=O)Nc2ccccc2)Oc2ccc(NC(=O)Nc3ccccc3)cc2CC1=O
3.8,9.2[16.7 µM],CCNC(=O)C[C@@H]1CC[C@@H]2[C@@H](COc3ccc(NC(=O)c4ccc(C(F)(F)F)cc4)cc3C(=O)N2C)O1
-7.4,3.5[16.7 µM],Cc1noc(C)c1NC(=O)N1C[C@@H](O)COC[C@H]2O[C@H](CC(=O)NCC3CC3)CC[C@@H]21
-6.4,-41.1[16.7 µM],CN(C)CCCNC(=O)C[C@@H]1CC[C@@H]2[C@H](COc3ccc(NC(=O)NC4CCCC4)cc3C(=O)N2C)O1
-14.1&-10.4,22.8[16.7 µM],C[C@H](CO)N1C[C@H](C)[C@H](CN(C)S(=O)(=O)c2ccc(F)cc2)Oc2ncc(C#Cc3cccc(F)c3)cc2C1=O
-21.7,-18.1[16.7 µM],C[C@@H]1CN([C@H](C)CO)C(=O)Cc2cc(NS(=O)(=O)c3cn(C)cn3)ccc2O[C@@H]1CN(C)C(=O)Nc1ccc2c(c1)OCO2
19.2,0.4[16.7 µM],C[C@@H]1CN([C@H](C)CO)S(=O)(=O)c2ccc(C#CC3CC3)cc2O[C@H]1CN(C)CC1CCOCC1
-10.4,26.2[16.7 µM],CO[C@@H]1CN(C)C(=O)c2ccc(NC(=O)c3cccc(F)c3)cc2OC[C@H](C)N(C(C)=O)C[C@H]1C
-5.4,15.5[16.7 µM],CC(C)C#Cc1cnc2c(c1)C(=O)N([C@H](C)CO)C[C@@H](C)[C@H](CN(C)C(=O)Cc1ccccn1)O2
-1.0,4.0[16.7 µM],CS(=O)(=O)Nc1ccc2c(c1)[C@@H]1C[C@H](CC(=O)NCc3ccccc3)O[C@@H](CO)[C@@H]1O2
-3.8,4.5[16.7 µM],C[C@H]1CN([C@@H](C)CO)C(=O)c2cccc(NS(=O)(=O)c3ccc(F)cc3)c2O[C@@H]1CN(C)C(=O)Nc1ccc2c(c1)OCO2
3.8,15.7[16.7 µM],C[C@H](CO)N1C[C@H](C)[C@H](CN(C)S(=O)(=O)c2ccccc2)Oc2ncc(-c3ccc(F)cc3)cc2C1=O
-6.5,-0.6[16.7 µM],C[C@H]1CN([C@@H](C)CO)C(=O)Cc2cc(NS(=O)(=O)c3ccc(Cl)cc3)ccc2O[C@@H]1CN(C)C(=O)Nc1ccc(C(F)(F)F)cc1
22.5,-17.1[16.7 µM],Cc1noc(C)c1NC(=O)Nc1ccc2c(c1)C(=O)N([C@H](C)CO)C[C@H](C)[C@H](CN(C)C(=O)Nc1ccc(F)cc1)OCCCC[C@H](C)O2
-1.9,-9.3[16.7 µM],COCCOC(=O)N1C(=O)[C@@]2(c3cc(C#Cc4ccc(OC)cc4)ccc31)[C@H](C(=O)N1CCN(c3ncccn3)CC1)[C@H]1C(=O)O[C@H](c3ccccc3)[C@H](c3ccccc3)N1[C@@H]2c1ccccc1OCCO

# Filtered by structure, the entries above containing a Cl atom.
Yeast UUG start,HIV Env fusion,SMILES
-7.4,-28.5[16.7 µM],C[C@H]1CN([C@@H](C)CO)C(=O)c2cccc(NS(=O)(=O)c3ccc(Cl)cc3)c2O[C@@H]1CN(C)S(=O)(=O)c1ccc(F)cc1
-4.9,-98.0[16.7 µM],C[C@@H]1CN([C@H](C)CO)C(=O)Cc2cc(NC(=O)Cc3ccccc3)ccc2O[C@@H]1CN(C)Cc1ccc(Cl)c(Cl)c1
-3.9,-16.5[16.7 µM],C[C@H](CO)N1C[C@H](C)[C@H](CN(C)C(=O)Nc2ccc(F)cc2)OCCCC[C@H](C)Oc2ccc(NS(=O)(=O)c3ccc(Cl)cc3)cc2C1=O
11.0,45.3[16.7 µM],C[C@H](CO)N1C[C@H](C)[C@@H](CN(C)Cc2ccc(Cl)c(Cl)c2)OCCCC[C@H](C)Oc2ccc(NC(=O)NC3CCCCC3)cc2C1=O
-6.5,-0.6[16.7 µM],C[C@H]1CN([C@@H](C)CO)C(=O)Cc2cc(NS(=O)(=O)c3ccc(Cl)cc3)ccc2O[C@@H]1CN(C)C(=O)Nc1ccc(C(F)(F)F)cc1

# Continued.
Yeast UUG start,HIV Env fusion,SMILES
-0.9,0.2[16.7 µM],COc1ccc(S(=O)(=O)Nc2ccc3c(c2)C(=O)N([C@@H](C)CO)C[C@H](C)[C@H](CN(C)S(=O)(=O)c2ccc(C)cc2)OCCCC[C@H](C)O3)cc1
-2.5,-11.1[16.7 µM],Cc1ccc(S(=O)(=O)N(C)C[C@@H]2Oc3c(NS(=O)(=O)c4ccccc4)cccc3C(=O)N([C@@H](C)CO)C[C@@H]2C)cc1
2.0,10.4[16.7 µM],CC(C)NC(=O)N(C)C[C@@H]1Oc2cc(C#CC(C)(C)O)ccc2S(=O)(=O)N([C@@H](C)CO)C[C@H]1C
9.5,-2.3[16.7 µM],COc1ccc(S(=O)(=O)N(C)C[C@H]2Oc3c(NS(=O)(=O)c4ccccc4)cccc3C(=O)N([C@H](C)CO)C[C@@H]2C)cc1
-3.2,-1.9[16.7 µM],C/C=C/c1ccc2c(c1)O[C@H](CN(C)C(=O)Nc1ccc(C(F)(F)F)cc1)[C@@H](C)CN([C@@H](C)CO)S2(=O)=O
-2.3,-5.1[16.7 µM],COc1ccc(NC(=O)N(C)C[C@H]2OCCCC[C@@H](C)Oc3ccc(NC(=O)c4ccccc4)cc3C(=O)N([C@@H](C)CO)C[C@@H]2C)cc1
-10.7,-9.0[16.7 µM],CC(=O)N(C)C[C@@H]1Oc2cc(-c3cncnc3)ccc2S(=O)(=O)N([C@@H](C)CO)C[C@H]1C
-0.9,-7.8[16.7 µM],COCC#Cc1ccc2c(c1)O[C@@H](CN(C)C)[C@H](C)CN([C@H](C)CO)S2(=O)=O
-15.2,3.9[16.7 µM],COc1ccccc1CNC(=O)C[C@H]1CC[C@H](NC(C)=O)[C@H](CO)O1
5.1,-8.7[16.7 µM],C[C@@H]1CN([C@H](C)CO)C(=O)c2cc(C3=CCCC3)cnc2O[C@@H]1CN(C)S(=O)(=O)c1cn(C)cn1
2.9,3.7[16.7 µM],Cc1ccc(S(=O)(=O)Nc2ccc3c(c2)C(=O)N([C@H](C)CO)C[C@H](C)[C@@H](CN(C)Cc2ccccc2)OCCCC[C@@H](C)O3)cc1
10.0,-68.6[16.7 µM],COc1ccc(NC(=O)Nc2ccc3c(c2)CC(=O)N([C@H](C)CO)C[C@@H](C)[C@H](CN(C)S(C)(=O)=O)O3)cc1
0.8,-90.9[16.7 µM],C[C@@H]1CN([C@@H](C)CO)C(=O)c2cccc(NC(=O)c3ccc(-c4nccs4)cc3)c2O[C@@H]1CN(C)C(=O)Nc1ccc(F)cc1
-8.3,-27.4[16.7 µM],C[C@H](CO)N1C[C@H](C)[C@H](CN(C)C(=O)Nc2cccc3ccccc23)OCCCC[C@H](C)Oc2ccc(NC(=O)c3ccccc3)cc2C1=O
24.1,24.6[16.7 µM],C/C=C/c1ccc2c(c1)O[C@H](CN(C)S(=O)(=O)c1ccccc1)[C@H](C)CN([C@@H](C)CO)S2(=O)=O
3.4,65.8*[16.7 µM],C[C@H]1CCCCO[C@H](CN(C)C(=O)Nc2ccc(C(F)(F)F)cc2)[C@@H](C)CN([C@@H](C)CO)C(=O)c2cc(NC(=O)Cc3ccccc3)ccc2O1
-4.0,-8.6[16.7 µM],C[C@@H]1CCCCO[C@H](CN(C)C(=O)Nc2cccc3ccccc23)[C@@H](C)CN([C@H](C)CO)C(=O)c2cc(NS(=O)(=O)c3ccc(Cl)cc3)ccc2O1
